KSHV LANA nucl – inhibitors of KSHV LANA-nucleosome binding, primary screen, biochemical, fluorescence polarization, FITC-LANA1-23, chicken nucleosomes | FITC-LANA1-23 / chicken nucleosome fluorescence polarization; active compounds read low | AID 720717, 2013 | z-score (test concentration not listed) | actives 0.3% (n = 51,000);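 active means both repeat wells score below -2 in polarization z-score versus plate sample wells, excluding overly bright wells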;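 further: 100 nL library stock added to about 30 µL; numbers are from one replicate; some results filed as inactive read as strong as hits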
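Assay system: FITC-LANA peptide and chicken nucleosomes; input: 240 nM purified chicken nucleosomes (480 nM peptide binding sites), final; also added: 50 nM FITC-LANA1-23 probe; medium: TEN-BT buffer, pH 7.5; doses: pin-transferred compound, 100 nL; times: 10–45 min, room temperature; technique: fluorescence polarization; replication: duplicates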
BasE inh – BasE siderophore enzyme inhibitors, primary screen, biochemical, Acinetobacter baumannii ATCC 17978, fluorescence polarization; purified BasE, fluorescence polarization binding displacement; inhibition, % (concentration not given with the values); actives 0.1% (n = 84,000);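 active means both replicates above 25% with normal brightness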;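 further: 0% = negative plate control signal and 100% = positive plate control signal; stock transfer was 100 nL into about 30 µL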
* marks the source's active call; other numbers are inactive results; . = not tested or not shown; & = joins results of further samples. A portion of the library. The share of hits here may be higher or lower than overall.

SMILES | KSHV LANA nucl | BasE inh
COC(=O)c1ccccc1NC(=O)c1oc2ccc(F)cc2c1C | 0.099 | 1.0
COc1ccc(NC(=O)CN(C)CC(=O)c2c(C)[nH]c3ccccc23)cc1 | . | -2.4
O=C(Nc1cccnc1)c1c(O)c2c(n(C3CC3)c1=O)CCCC2 | 0.66 | 1.3
CC[C@@]1([C@@H]2O[C@@H]([C@H]3O[C@@](O)(CO)[C@H](C)C[C@@H]3C)C[C@@H]2C)CC[C@H]([C@]2(C)CC[C@]3(C[C@H](O)[C@@H](C)[C@@H]([C@@H](C)[C@@H](OC)C(C)C(=O)O)O3)O2)O1 (stereo not given in full) | -1.1 | -0.2
c1ccc(-n2c(SCc3cc(-c4cccs4)on3)nnc2C2CC2)cc1 | . | -1.6
O=S(=O)(c1csc2ccccc12)N1CCOCC1 | -0.022 | .
Cc1cc(C(=O)CSc2n[nH]c(N)n2)c(C)n1Cc1ccc2c(c1)OCO2 | . | -2.4
CNC(=S)N/N=C(\C)Cc1ccc(OC)cc1 | . | 0.4
Nc1cc2c(cc1Cl)OCO2 | -2.4 | 5.7
COc1ccccc1CCNS(=O)(=O)c1ccc(C(=O)O)n1C | . | 0.3
Fc1cc(F)c(NC(=S)N2CCOCC2)c(F)c1 | . | 0.7
Cc1ccc(/C=C(\C#N)C(=O)NC2CCCCC2C)o1 (stereo not given) | . | -1.4
N#C/C(=C\c1ccc(C(F)(F)F)cc1)c1c[nH]c2ccccc12 | . | -2.0
O=C1CCOc2ccc3ccccc3c21 | 0.19 | 4.0
CC1CCCCN1C(=O)c1ccc2ccccc2n1 (stereo not given) | . | 8.3
CC(Sc1nnc(-c2ccncc2)o1)C(N)=O (stereo not given) | 0.16 | 3.8
COc1ccc2cc3cc(C(=O)NCCCN4CCN(C)CC4)sc3nc2c1 | 0.71 | -13
O=c1oc(-c2ccc(F)cc2)nc2scc(-c3cccs3)c12 | -0.63 | 0.2
CC(Oc1cccc(Cl)c1)C(=O)N(C)Cc1nc2ccccc2c(=O)[nH]1 (stereo not given) | . | 76
O=C(NC(=S)NC1C2CC3CC(C2)CC1C3)c1ccco1 (stereo not given) | 0.29 | 5.2
CN(C)S(=O)(=O)c1ccc(C(=O)OCc2csc(Nc3ccccc3)n2)cc1 | . | 2.5
CCOC(=O)c1sc(-c2ccccc2)nc1OCc1c(Cl)cccc1Cl | . | -1.6
OCCCNc1ncnc2sc(-c3ccccc3)cc12 | . | -0.3
O=c1[nH]c(O)c(/C=N/Nc2ccccc2)c(=O)[nH]1 | -0.55 | 1.2
CN(C)c1ccc2c(c1)S(=O)(=O)c1cc(N(C)C)ccc1C2=O | -4* | 33
CC(C)CNS(=O)(=O)c1ccc2nc(NC(=O)c3ccccn3)sc2c1 | 0.14 | 0.6
Fc1ccccc1OCCCOc1ccccc1F | 0.24 | 3.3
Cc1cc(C)n(CCCNS(=O)(=O)c2cccs2)n1 | . | -0.4
NC(=O)c1c(N)sc2c1CCCCC2 | . | -0.3
CC(C)(C)c1ccc(OCNC(=S)NC(=O)c2cncc(Br)c2)cc1 | . | 0.1
COC(=O)CC(N)c1cccc2ccccc12 (stereo not given) | 0.18 | .
Cn1ccc(=O)c2ccccc21 | 0.056 | 3.6
COc1ccc(-c2nnco2)cc1OC | 0.17 | 3.2
O=C(NCCOc1ccccc1)c1ccc2c(c1)OCO2 | 0.049 | 0.9
CCN(CC(=O)Nc1ccc2c(c1)OCCO2)CC(=O)Nc1cc(C)on1 | . | 1.3
O=C(O)c1ccc2c(c1)nnn2C1CCCCC1 | 2 | -2.7
CSc1ccc(/C=N/O)cc1 | . | -0.8
COc1ccc(S(=O)(=O)NCc2cccn2Cc2ccccc2C)cc1 | -0.03 | -1.4
O=C(CCC(=O)N1CCSc2ncccc21)NCc1cccc(Cl)c1 | 0.097 | 1.5
CNC(=O)c1oc2c(c1C)-c1nn(Cc3cccc(Cl)c3)cc1CC2 | 0.077 | 0.0
Cc1ccc(Cl)cc1NC(=O)CO/N=C(\N)c1ccccc1 | . | 3.6
CCOC(=O)N1CCC(N2Cc3cccc(C(=O)N4CCN(C(=O)c5ccco5)CC4)c3C2=O)CC1 | -0.77 | 0.2
Cc1c(C(=O)NC2CCCCC2)oc2ccccc12 | 0.43 | -0.1
O=c1oc(-c2ccccc2)nc2ccsc12 | 1.2 | .
OC1CCN(Cc2nnnn2Cc2ccccc2)CC1 | -0.33 | -0.7
CC(=O)OCC(=O)[C@@]1(O)CCC2C3CCC4=CC(=O)CC[C@]4(C)C3C(=O)C[C@@]21C (stereo not given in full) | 0.058&1.3 | 0.6
N#CCC(Cc1ccccc1)c1ccco1 (stereo not given) | -0.2 | -1.1
CCc1cccc2c(C(=O)COC(=O)C3=NNC(=O)CC3)c[nH]c12 | . | -2.2
CCOC(=O)C1CCN(C(=O)COC(=O)c2ccc(O)cc2)CC1 | . | -1.1
O=C(CSc1cccc[n+]1[O-])c1ccc(OC(F)F)cc1 | . | 0.8
Additional results:
SMILES | KSHV LANA nucl | BasE inh
O=C(Cc1c[nH]c2ccccc12)OCC(=O)N1CCCC1=O | . | 0.6
CCCN(C(=O)/C=C/c1ccc(N(C)C)cc1)C1CCS(=O)(=O)C1 (stereo not given) | . | 0.5
O=C(CSc1nnc2ccccn12)c1ccc(S(=O)(=O)N2CCCCC2)cc1 | . | 6.5
CCOC(=O)c1c(NC(=O)CSc2nnnn2-c2cc(C)ccc2OC)sc(C(=O)N(CC)CC)c1C | . | -3.2
CN(N)C(=S)Nc1ccccc1 | . | 1.9
CCc1cc(=O)[nH]c(N2CCCCC2)n1 | 0.67 | -0.1
CC(OC(=O)C1=NNC(=O)CC1)C(=O)Nc1ccc(Oc2ccccc2)cc1 (stereo not given) | . | -0.7
COc1ccc(-c2[nH]c3ccccc3c2CCC(=O)O)cc1 | . | 1.8
CCOc1ccccc1C(=S)N1CCOCC1 | -0.46 | 2.4
Cc1ccc(-c2nc(C#N)c(NCCN(C)C)o2)cc1 | -0.65 | 2.8

Exported with two lines to a compound: part of the list above
Results follow in this order: KSHV LANA nucl	BasE inh
CCOC(=O)c1c(NC(=O)CSc2nnnn2-c2cc(C)ccc2OC)sc(C(=O)N(CC)CC)c1C
    .	-3.2
CN(N)C(=S)Nc1ccccc1
    .	1.9

(more compounds)
SMILES | KSHV LANA nucl | BasE inh
Cc1cccc2nc(CSc3nnc(-c4ccccc4)o3)cn12 | -0.97 | -1.6
O=c1c(F)cn(C2CCCO2)c(=O)n1Cc1cccc2ccccc12 (stereo not given) | 3.3 | .
Cc1n[nH]c(=S)n1CC(=O)N1c2ccccc2CCc2ccccc21 | -0.43 | -1.0
COc1ccc(-c2cc(C(F)(F)F)nc(SCCC(=O)N3CCC(C(N)=O)CC3)n2)cc1 | -1 | -0.8
CC(=O)OCN1C(=O)N(COC(C)=O)C2C1N(COC(C)=O)C(=O)N2COC(C)=O (stereo not given) | -0.23 | 9.5
COc1ccccc1NC(=O)/C=C1\NC(=O)CS1 | . | 1.9
CCc1ccc(C(=O)Nc2nncs2)cc1 | -0.85 | 1.0
Cc1cc(C)n2ncc(C(=O)N3CCC(C)CC3)c2n1 | -0.56 | 1.9
N/C(=N\O)c1cccs1 | . | -1.9
Cc1cccc(-n2ncc3c2ncn2nc(COc4c(C)cccc4C)nc32)c1 | . | 1.3
CSC(=NC=[N+](C)C)Nc1ccccc1 | 1.5 | .
O=C(Nc1ccc(N2CCCCC2)cc1)c1ccc(Cl)cc1Cl | 0.14 | .
COc1ccc(-c2nc3ccccc3s2)cc1 | . | 1.1
Cc1cc(C(=O)NCC2COc3ccccc3O2)nn1C (stereo not given) | . | 0.2
COC(=O)C1=C(C)NC(=O)C1(NS(=O)(=O)c1ccc(C)cc1)C(F)(F)F (stereo not given) | -0.11 | -1.7
CNC(=O)c1cc(C)c(-c2ccccc2)s1 | 0.23 | -1.4
CCN(CC)CC(=O)Nc1ccc(Oc2ccc(NC(=O)CN(CC)CC)cc2)cc1 | -0.14 | 0.2
CCN(CC)CCNc1c2c(c(C#N)c3nc4ccccc4n13)CCCC2 | . | -16
Cc1cccc(C)c1NC(=O)CN1CCN(CCCC(c2ccc(F)cc2)c2ccc(F)cc2)CC1 | -0.072 | -3.4
COc1cc(NC(=O)C2CCN(c3ncccn3)CC2)cc(OC)c1 | -0.38 | -1.9
Cc1ccc2nsnc2c1S(=O)(=O)NC(C)(C)C | -0.44 | 2.0
CCc1ccc(NC(=O)c2sc3ncnc(N4CCN(C)CC4)c3c2C)cc1 | -1.2 | -2.8
Cc1ccc(CNC(=S)NC2CCN(C)CC2)cc1 | -0.022 | 1.7
CC1CCC2(CC1)NC(=O)N(/N=C/c1ccccc1)C2=O (stereo not given) | . | 1.8
CN(Cc1ccccc1)C(=O)COCc1cc(-c2ccco2)on1 | 0.8 | -4.0
CCCCS(=O)(=O)c1sc2nc(C)cc(C)c2c1N | 0.99 | -0.9
Cc1nn(-c2ccc(N3CCCC3)nn2)c(C)c1CCC(=O)NCc1ccc2c(c1)OCO2 | -1.6 | -0.5
O=C(NC1CCCCC1O)c1cccc(Cl)c1 (stereo not given) | . | 4.6
O=C(OCCCN1C(=O)c2ccccc2C1=O)c1ccc(Cl)cc1Cl | . | 3.2
CN=c1scc(C)n1/N=C/c1ccc2c(c1)OCO2 | . | 1.6
O=C(CCc1ccccc1)N1CCN(c2ccc(N3CCCCCC3)nn2)CC1 | -0.49 | 1.3
NC(=O)c1noc(C(=O)N(c2ccc(OC(F)(F)F)cc2)C(C(=O)NC2CCCC2)c2c[nH]c3ccccc23)c1N (stereo not given) | -0.74 | 1.6
O=C(N[C@@H](Cc1ccc(O)cc1)C(=O)O)OCc1ccccc1 | 0.56 | 0.1
O=c1cc(Cn2nnc(-c3ccc(Cl)cc3)n2)nc2sccn12 | . | 2.3
COc1ccccc1N1CCN(C(C)C(=O)N2CC(C)CC(C)C2)CC1 (stereo not given) | . | 0.8
O=C1/C(=C/c2ccc(-c3nn[nH]n3)cc2)C(c2ccccc2)Oc2ccccc21 (stereo not given) | . | 2.3
O=C1CN(c2ncnc3sc(-c4ccccc4)cc23)CCN1 | . | 0.0
Cc1cc(-c2nn(C)c(=O)c3ccccc23)cc(C)c1OC(=O)Nc1ccc(Cl)cc1 | . | 1.4
O=C(CSc1nc2ncc(Cl)cc2[nH]1)c1ccc(S(=O)(=O)N2CCCC2)cc1 | . | 1.7
Clc1ccc2nc(N3CCCC3)nc(-c3ccccc3)c2c1 | 0.39 | 3.9

A few values from the results shown.
For BasE inh, O=C(N[C@@H](Cc1ccc(O)cc1)C(=O)O)OCc1ccccc1 reads 0.1
For BasE inh, O=c1cc(Cn2nnc(-c3ccc(Cl)cc3)n2)nc2sccn12 reads 2.3
For KSHV LANA nucl, O=C(CCc1ccccc1)N1CCN(c2ccc(N3CCCCCC3)nn2)CC1 reads -0.49
For BasE inh, Cc1cc(-c2nn(C)c(=O)c3ccccc23)cc(C)c1OC(=O)Nc1ccc(Cl)cc1 reads 1.4
For BasE inh, O=C(CSc1nc2ncc(Cl)cc2[nH]1)c1ccc(S(=O)(=O)N2CCCC2)cc1 reads 1.7
For BasE inh, O=C1CN(c2ncnc3sc(-c4ccccc4)cc23)CCN1 reads 0.0

Laid out differently: 4 of the compounds above.
molecule: COc1ccccc1N1CCN(C(C)C(=O)N2CC(C)CC(C)C2)CC1 (stereo not given)
  KSHV LANA nucl: .; BasE inh: 0.8

molecule: O=C1/C(=C/c2ccc(-c3nn[nH]n3)cc2)C(c2ccccc2)Oc2ccccc21 (stereo not given)
  KSHV LANA nucl: .; BasE inh: 2.3

molecule: O=C1CN(c2ncnc3sc(-c4ccccc4)cc23)CCN1
  KSHV LANA nucl: .; BasE inh: 0.0

molecule: Cc1cc(-c2nn(C)c(=O)c3ccccc23)cc(C)c1OC(=O)Nc1ccc(Cl)cc1
  KSHV LANA nucl: .; BasE inh: 1.4

(list continues)
SMILES | KSHV LANA nucl | BasE inh
CCCc1nnc(SCC(=O)c2ccccc2)o1 | 0.11 | -1.6
O=C1NC2=C(C(=O)OC2)C(c2ccc(F)cc2)N1 (stereo not given) | 0.68 | -0.2
Nc1nc(N)c2[nH]c(-c3ccccc3)nc2n1 | . | 7.2
CC1(C)OC(=O)C(=Cc2cccn2-c2ccc(C(F)(F)F)cc2)C(=O)O1 | . | 2.1
Cn1cnnc1SCC(=O)c1ccc2c(c1)NC(=O)CO2 | . | -1.2
CCOC(=O)C1C(=O)NC(N2CCN(CC)CC2)=NC1C(C)C (stereo not given) | -1 | 1.3
CC(C)N(C(=O)CSc1nnc2sc3ccccc3n12)C(C)C | . | 3.5
COc1ccc(C(O)c2nccn2C)cc1 (stereo not given) | 2.2 | -4.7
N#Cc1ccccc1COc1ccccc1C(N)=O | . | 1.7
COc1cccc(-n2c(-c3cccc(S(=O)(=O)N(C)C)c3)n[nH]c2=S)c1 | . | -0.3
CCOC(=O)c1sc2nc(C)nc(SCc3nnc(-c4ccc(Cl)cc4)o3)c2c1C | . | -2.5
Cc1cccc(-c2nnc(N(C(=O)C3CCC3)C(C)C)s2)c1 | -0.2 | -2.5
CCCNC(=O)CN1C(=O)COc2ccccc21 | . | 2.2
CCOC(=O)c1cc(-c2cc3ccccc3o2)n[nH]1 | . | -5.5
Cc1ccc2nc(NC(=O)c3cccs3)sc2c1 | . | 0.1
CCc1cccc2c3c([nH]c12)C(CC)(CC(=O)O)OCC3 (stereo not given) | 0.24&-0.2&0.45 | -0.3&3.7
CCCCc1nc2ccccc2c(C(=O)O)c1C | 1.1 | -0.3

Screening data deposited in PubChem BioAssay by ICCB-Longwood Screening Facility, Harvard Medical School.
